Assay outcomes from PubChem.
TRPV1 PAM: human TRPV1 potentiation; 0.02% of 320,000 active; TRPV1-expressing cells, Fluo-8 calcium influx, capsaicin EC20 potentiation; host cell line not named in the record; control for the full effect not named in the record; Q8NER1; AID 540277; potentiation, % at 8.33 µM; active means potentiation above 80%; inconclusive means 30% to 80%; inactive means below 30%; also: 0% is about no effect
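Fluo-8 calcium influx in TRPV1-expressing cells, kinetic read (ex 480/em 520 nm). Compound added and read 3 min for agonist activity, followed by capsaicin at EC20 final and 2 min further read for enhancement.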
Six1-Eya2 blk: blocks human Six1 binding to Eya2; AlphaScreen GST-Six1/His-Eya2 binding, biochemical; active compounds read low; control for the full effect not named in the record; activity change, % (concentration not given with the values); 0.56% of 360,000 active; AID 651725; in the data active = activity change below about -65%; inconclusive = about -30% to -65%; inactive = above about -30%; also: % is scaled to controls: 0 for no effect and ±100 for the full control effect
Target sequence (O00167 whole entry, looked up): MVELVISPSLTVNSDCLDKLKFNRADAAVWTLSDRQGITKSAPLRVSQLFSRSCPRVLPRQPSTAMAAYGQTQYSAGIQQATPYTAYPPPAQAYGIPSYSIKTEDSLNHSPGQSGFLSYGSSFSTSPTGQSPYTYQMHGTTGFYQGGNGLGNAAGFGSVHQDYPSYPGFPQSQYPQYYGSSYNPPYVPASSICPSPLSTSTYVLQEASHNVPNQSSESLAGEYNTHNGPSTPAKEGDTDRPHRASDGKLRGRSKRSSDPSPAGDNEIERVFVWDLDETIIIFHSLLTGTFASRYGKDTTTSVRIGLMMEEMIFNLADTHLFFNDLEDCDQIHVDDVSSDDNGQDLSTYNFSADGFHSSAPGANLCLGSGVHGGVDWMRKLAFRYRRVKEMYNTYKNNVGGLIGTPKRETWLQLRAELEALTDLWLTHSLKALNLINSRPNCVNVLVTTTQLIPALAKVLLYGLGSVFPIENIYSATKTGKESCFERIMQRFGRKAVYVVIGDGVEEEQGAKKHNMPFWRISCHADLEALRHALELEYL
Target sequence (Q15475 whole entry, looked up): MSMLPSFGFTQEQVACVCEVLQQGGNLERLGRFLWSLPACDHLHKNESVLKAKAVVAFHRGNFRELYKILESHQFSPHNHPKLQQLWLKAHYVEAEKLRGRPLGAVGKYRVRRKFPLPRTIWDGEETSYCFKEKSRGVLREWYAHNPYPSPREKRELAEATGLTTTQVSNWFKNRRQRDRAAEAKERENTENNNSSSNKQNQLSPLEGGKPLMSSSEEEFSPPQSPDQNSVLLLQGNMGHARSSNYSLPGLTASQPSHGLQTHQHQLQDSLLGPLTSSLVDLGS
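Homogeneous AlphaScreen proximity assay pairing GST-Six1 with His-tagged Eya2 (added as 5X mix: 250 nM and 500 nM) in 50 mM Tris pH 8.0, 300 mM NaCl, 1 mM TCEP. Glutathione donor and nickel acceptor beads; 1 h, 37 °C, dark.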
TRPML1 blocker: human mucolipin-1 channel inhibition | Q9GZU1 | 0.02% of 390,000 active | activity change, negative = inhibition, % (test concentration not listed) | TRPML1-inducible cells, Ca2+ dye fluorescence, FDSS; active compounds read low; inhibition of EC80 agonist-evoked calcium signal; in the data active means activity change below about -50%; inconclusive means about -30% to -50%; inactive means above about -30%;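 also: stimulus is agonist 54-4 at its EC80 concentration; % is scaled to controls: 0 for no effect and ±100 for the full control effect; compound concentration not given in the record; the text of the record puts the active cut at -80%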
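Calcium fluorescence in TRPML1-DL cells induced overnight with Tet: a 110 s read after compound pin addition, then a 110 s antagonist read after challenge with 54-4 at 4 uM final (EC80).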
TRPML1 agonist: human mucolipin-1 channel agonism | TRPML1-expressing cells, Ca2+ dye fluorescence, FDSS; host cell line not named in the record; reference of the full effect not given here | activation, % (test concentration not listed) | AID 624414 | Q9GZU1 | 0.12% of 410,000 active; in the data active = activation above about 50%; inconclusive = about 30% to 50%; inactive = below about 30%; also: 0% is about no effect; the text of the record puts the active cut at 80%
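Tetracycline-induced TRPML1-DL cells are seeded and incubated overnight before loading with a no-wash Ca2+ dye and quencher. Agonist activity is taken from the 110 s fluorescence read following compound pin-transfer on an FDSS, before EC80 54-4 challenge.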
D2 potentiator: human D2 receptor positive allosteric modulation; 0.23% of 360,000 active; DiscoveRx D2 beta-arrestin cells, luminescence, 90 min; 100% = 57 uM dopamine signal; P14416; potentiation, % (no concentration beside the values); AID 624464; active = potentiation of 50% or more; inconclusive = 30% to 50%; inactive = 30% or less;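 also: compound concentration not given in the record; tested on top of an EC20 dose of dopamine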
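PathHunter D2 cells, attached overnight at 37 deg C, received compound in DMSO plus dopamine at EC20 (50 nM final) for 90 min at 37 deg C. Beta-arrestin recruitment was read as luminescence after 1 h with detection reagent at ambient temperature.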
CtBP-E1A inh: CtBP/E1A binding inhibition | AlphaScreen GST-E1A/His-CtBP binding, 1536-well; active compounds read low; control for the full effect not named in the record | activity change, % (no concentration beside the values) | AID 651724 | 0.49% of 340,000 active; in the data active means activity change below about -65%; inconclusive means about -30% to -65%; inactive means above about -30%; also: % is scaled to controls: 0 for no effect and ±100 for the full control effect
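Steps: dispense buffer (Tris pH 8.0, NaCl 300 mM, TCEP 1 mM, BSA, Tween 20); add 5X protein mix (GST-E1A, His-CtBP, 125 nM each); pin 23 nL compound; 2 h at 37 °C, dark; add 5X beads (50 ug/mL); 1 h; read.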
The depositor's hits bear a star; u = inconclusive; x = not tested or not shown; & = joins results of further samples. Compounds as they come; any-hit rate near 0.95%.

molecule	TRPV1 PAM	Six1-Eya2 blk	TRPML1 blocker	TRPML1 agonist	D2 potentiator	CtBP-E1A inh
CCN1C(=O)N(CC)C2C1N(C(C)=O)C(=O)N2C(C)=O (configuration not stated)	-20	-8	50	-0.3	9	12
CCCN1CCC(NC(=O)c2cccc(Oc3ccccc3)c2)CC1	u	21	-4	0.3	-34	-19
O=c1[nH]c(=O)n(Cc2ccco2)c2c1C(C(F)(F)F)(C(F)(F)F)N=C(c1ccc(F)cc1)N2	22	0	3	-0.3	-8	8
CCS(=O)(=O)c1ccc2c(c1)N(S(=O)(=O)c1ccc(C)cc1)CC(C(=O)O)O2 (configuration not stated)	5	-5	-3	-0.3	-4	-1
COc1cccc(CNC(=O)Cc2nc3nc(C)cc(C)n3n2)c1	0	0	33	-0.4	-9	5
CCOC(=O)Cn1c(=NC(=O)c2cc(-c3cccs3)nc3ccccc23)sc2cc(S(N)(=O)=O)ccc21	1	8	-8	1.5	-28	-20
COC(=O)c1ccc(NC(=O)C(=O)c2cn(CC(=O)N3CCOCC3)c3ccccc23)cc1	25	4	0	0.2	-4	x
O=C(CCCN1Cc2ccccc2C1)c1ccc(F)cc1	1	8	-15	-0.2	-23	0
C[C@@H]1CCCCO[C@@H](CN(C)Cc2ccc3c(c2)OCO3)[C@@H](C)CN([C@H](C)CO)C(=O)c2cc(NS(=O)(=O)c3ccccc3)ccc2O1	x	8	17	1.5	-8	-1
CC(NCC1COc2ccccc2O1)C1COc2ccccc2O1 (configuration not stated)	-4	19	-10	2.6	1	26
CCN(CC)S(=O)(=O)c1ccc(N2CCOCC2)c(NC(=O)CC23CC4CC(CC(Br)(C4)C2)C3)c1	9	-10	0	-0.1	-28	-8
CC(C)CC1(C)CNC(=O)NC1	x	8	2	-0.2	-25	14
COc1ccc(S(=O)(=O)N2CCCCC2)cc1C(=O)NC1CCS(=O)(=O)C1 (configuration not stated)	x	-5	-8&23	-0.6&0.0	-5	3
CC(C=Cc1ccccc1)=NNS(=O)(=O)c1ccc([N+](=O)[O-])cc1	x	5	44	1.1	-2	-1
CCc1ccc(C(=O)COC(=O)CNC(=O)c2ccc(Br)o2)cc1	u	0	-17	2.7	-13	16
O=C(C1CC1)N1CCc2cc(Br)cc(S(=O)(=O)NC3CCCCC3)c21	3	-15	12	-1.2	-6	-12
c1nc2ccc(Cc3ccc4nc[nH]c4c3)cc2[nH]1	7	7	1	-0.5	-23	x
Cc1ccccc1N1CCN(S(=O)(=O)c2nnc(NC(=O)CC(C)C)s2)CC1	2	6	1	-0.3	-7	-3
CCOc1ccc(N(CC(=O)NC2CCCC2)C(=O)CCC(=O)Nc2nc(C)cs2)cc1	21	3	-8	1.2	-21	2
CCN(CC(=O)Nc1ccc(S(=O)(=O)N2CCCC2)cc1)Cc1ccccc1	2	-2	15	0.9	1	4
O=C(NCC1CCN(S(=O)(=O)c2ccccc2)CC1)Nc1ccc(F)cc1F	-8	-4	-5	-0.8	-9	8
O=C(NCCCN1CCCC1=O)Nc1cc(Cl)ccc1Cl	2	-7	13	0.0	-51	-19
CCOc1ccc(OCCCC(=O)N2CCN(S(=O)(=O)c3ccc(Cl)cc3)CC2)cc1	-15	-4	5	-0.7	1	-2
CCn1cc(C(=O)NCCCOC)c(=O)c2cc(S(=O)(=O)N(C)C)ccc21	-11	-3	2	0.6	0	0
CC(=O)Nc1nc(-c2ccc(Br)s2)cs1	9	-5	35	0.7	-11	7

An excerpt of these results, with values under each structure:
Values in the order – TRPV1 PAM, Six1-Eya2 blk, TRPML1 blocker, TRPML1 agonist, D2 potentiator, CtBP-E1A inh
> O=C(NCC1CCN(S(=O)(=O)c2ccccc2)CC1)Nc1ccc(F)cc1F
    -8, -4, -5, -0.8, -9, 8
> O=C(NCCCN1CCCC1=O)Nc1cc(Cl)ccc1Cl
    2, -7, 13, 0.0, -51, -19
> CCOc1ccc(OCCCC(=O)N2CCN(S(=O)(=O)c3ccc(Cl)cc3)CC2)cc1
    -15, -4, 5, -0.7, 1, -2
> CCn1cc(C(=O)NCCCOC)c(=O)c2cc(S(=O)(=O)N(C)C)ccc21
    -11, -3, 2, 0.6, 0, 0

A second format for two compounds above:
Fields – TRPV1 PAM	Six1-Eya2 blk	TRPML1 blocker	TRPML1 agonist	D2 potentiator	CtBP-E1A inh
- CCOc1ccc(OCCCC(=O)N2CCN(S(=O)(=O)c3ccc(Cl)cc3)CC2)cc1
→ -15	-4	5	-0.7	1	-2
- CCOC(=O)Cn1c(=NC(=O)c2cc(-c3cccs3)nc3ccccc23)sc2cc(S(N)(=O)=O)ccc21
→ 1	8	-8	1.5	-28	-20

Later entries
molecule	TRPV1 PAM	Six1-Eya2 blk	TRPML1 blocker	TRPML1 agonist	D2 potentiator	CtBP-E1A inh
CN(CC(=O)Nc1ccc(S(=O)(=O)N2CCCC2)cc1)Cc1ccc(Cl)cc1Cl	-9	-6	10	1.0	64*	1
COC(=O)CSc1nnc(CNS(=O)(=O)c2ccc(Cl)cc2)n1C	6	-1	0	-0.3	-3	18
CCN(CC)S(=O)(=O)c1cccc(NC(=O)Nc2cccc(C(F)(F)F)c2)c1	3	16	-12	3.1	-17	2
NC(=O)CNC1CC(=O)N(CCc2ccccc2)C1=O (configuration not stated)	1	-1	u	0.5	-1	2
CCN1C(=O)/C(=C/c2ccc(C)s2)NC1=S	-8	-5	4	1.3	-1	-6
CC(=O)Nc1c(-c2ccccc2)nc2cc(C)ccn12	-1	12	-1	1.0	-9	7
Cc1ccc(C(C(=O)NC(C)(C)C)N(Cc2ccco2)C(=O)Cn2nnc(-c3cccs3)n2)cc1 (configuration not stated)	4	-16	1	2.6	-2	-4
COc1ccc(Cl)cc1S(=O)(=O)N1CCCC(C(=O)NCC(N)=O)C1 (configuration not stated)	x	3	-10	0.5	-25	-2
COc1cc(/C=C/C(=O)O)cc(S(=O)(=O)N2CCc3ccccc32)c1OC	27	5	6	0.2	-1	4
COc1ccc(-c2nnc3sc(-c4ccco4)nn23)cc1OC	-19	-4	6	-0.9	4	-3
CCCC1=NN2C(=N)/C(=C\c3cc(C)n(-c4cc(C)cc(C)c4)c3C)C(=O)N=C2S1	-7	-3	-8	11	-13	-4
O=C(NCC1CCCCC1)c1ccc2nc([C@@H]3O[C@H](CO)[C@@H](O)[C@H]3O)[nH]c2c1	x	0	x	-0.8	-4	0
COc1cccc(-c2cnc(C(O)c3cc(C)ccc3C)[nH]2)c1 (configuration not stated)	x	-12	x	-0.1	-9	2
CN(CC(=O)Nc1ccc(C#N)cc1)Cc1ccc(Cl)cc1	-7	3	6	0.4	-10	4
Cc1cnc(C(=O)OC(C(=O)c2ccccc2)c2ccccc2)cn1 (configuration not stated)	-10	1	10	-1.8	3	x
CN1CCN(C(=O)C[C@@H]2C[C@H]3c4cc(NC(=O)c5cccnc5)ccc4O[C@H]3[C@H](CO)O2)CC1	x	6	3	-0.2	4	6
Cn1ccnc1Sc1nc(Nc2cccc(Cl)c2)nc(N2CCOCC2)n1	5	1	-11	-0.3	-30	4
CCOC(=O)N1CCC2CC1c1cc(Cl)ccc12 (configuration not stated)	x	-1	18	0.4	x	4
CC(C)C[C@@H](COCc1cccc(Cl)c1)N1CCN(C(=O)c2cccc(C(F)(F)F)c2)CCC1=O	x	1	x	-0.5	x	2
O=C(Nc1ccccc1)O/N=C/c1ccc(F)cc1	u	13	6	1.7	-55	x
Cc1n[nH]c(=O)c2c(NC(=O)COC(=O)Cc3ccc(Cl)cc3Cl)oc(C)c12	-2	0	26	-0.8	25	0
COCCNC(=O)C(=O)Nc1ccc(Br)cc1	9	-1	-14	0.5	-12	9
Cc1ccc(NC(=O)C(C)Sc2nnc(C)n2C2CC2)cc1S(=O)(=O)N1CCOCC1 (configuration not stated)	-7	-6	1	-0.9	1	x
CC(Oc1ccccc1)C(=O)N=C1SC2CS(=O)(=O)CC2N1CCc1ccccc1 (configuration not stated)	-14	0	-15	0.0	-7	2
COc1ccc(CN2CCN(Cc3cc4ccccc4o3)CC2CCO)c(F)c1 (configuration not stated)	-7	-3	-18	2.0	-7	-11

The listing continues:
molecule	TRPV1 PAM	Six1-Eya2 blk	TRPML1 blocker	TRPML1 agonist	D2 potentiator	CtBP-E1A inh
O=[N+]([O-])c1ccc(N2CCCC2)cc1N1CCCC1	-13	u	-5	1.6	-23	u
Cc1cc(C)nc(SCC(=O)N(C)C)n1	5	16	15	-0.9	6	8
O=C(c1ccc2ccccc2c1)C1CCCN(C(=O)c2cccnc2)C1 (configuration not stated)	-1	-7	-7	-0.4	-22	8
Cc1c(N=C2N=C(NC(=O)NC(C)(C)C)c3ccccc32)c(=O)n(-c2ccccc2)n1C	-9	-5	25	0.5	-1	-6

Two entries picked at random from those above, as already listed:
molecule	TRPV1 PAM	Six1-Eya2 blk	TRPML1 blocker	TRPML1 agonist	D2 potentiator	CtBP-E1A inh
O=[N+]([O-])c1ccc(N2CCCC2)cc1N1CCCC1	-13	u	-5	1.6	-23	u
Cc1cc(C)nc(SCC(=O)N(C)C)n1	5	16	15	-0.9	6	8
